Compound activity as filed in PubChem BioAssay.
VDR inhibitor – blocks the human vitamin D receptor; actives 0.93% (n = 400,000); P11473; AID 504847; Potency, µM, for the others: max response, negative = inhibition, hits mostly inhibitors; VDR-SRC2-3 peptide fluorescence polarization, 2 h; active means well fitted inhibition curve with a large enough effect; inconclusive means small, poorly fitted or top-dose-only effect, or another doubt; inactive means no such curve, though single readings can be large or run the other way; further: series mostly up to about 120 µM
Target sequence (P11473 whole entry, looked up): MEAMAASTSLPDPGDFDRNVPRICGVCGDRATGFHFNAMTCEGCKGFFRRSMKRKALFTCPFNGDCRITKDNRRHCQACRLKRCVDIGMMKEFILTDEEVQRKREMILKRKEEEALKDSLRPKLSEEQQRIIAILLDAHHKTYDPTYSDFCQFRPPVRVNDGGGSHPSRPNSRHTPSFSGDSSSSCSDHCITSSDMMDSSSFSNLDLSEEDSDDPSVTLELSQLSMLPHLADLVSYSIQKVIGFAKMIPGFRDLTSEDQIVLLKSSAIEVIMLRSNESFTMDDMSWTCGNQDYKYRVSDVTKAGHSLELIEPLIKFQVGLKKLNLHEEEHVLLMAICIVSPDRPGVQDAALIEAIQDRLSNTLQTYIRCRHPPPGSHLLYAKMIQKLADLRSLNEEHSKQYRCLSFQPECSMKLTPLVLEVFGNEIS
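Two reagent solutions held at 4 deg C in the dark were dispensed, compounds pinned at 23 nl, and the mixture incubated 2 h at room temperature. Read-out: fluorescence polarization of VDR–SRC2-3 peptide binding.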
* marks the source's active call; other numbers are inactive results; ? = inconclusive; & = joins results of further samples; [ ] = remark or other dose. On the % scale 0 is the no-effect control and ±100 the full control effect; potency means the concentration at half of the fitted maximal effect. The list is partial; the hit share may differ from the screen's.

SMILES	VDR inhibitor
O=C(NC1CCCCC1)C(c1ccc(F)cc1)N(C(=O)c1cccs1)c1ccc2c(c1)OCO2 (centres undefined)	8.3%
COc1cccc(NC(=O)N(Cc2c[nH]c3ccccc23)C2CCCCC2)c1	-16.9%
Cc1ccc2c(n1)CC(C)(C)C/C2=N\O	-4.2%
Nc1nc2c(nnn2Cc2ccc(Cl)c(Cl)c2)c(=O)[nH]1	?
Cc1cc(=O)oc2cc(OCc3ccc(S(=O)(=O)N4CCOCC4)cc3)ccc12	-8.7%
COc1cccc(C2=NOC(C(=O)NCCCn3ccnc3)C2)c1 (centres undefined)	4.2%
CN(c1nc(-c2ccccc2)cs1)C1CCS(=O)(=O)C1 (centres undefined)	-11.8%
O=C(O)/C=C\C(=O)Nc1ccccc1C(=O)N1CCC(O)(c2ccc(Cl)cc2)CC1	6.3%
Oc1ccc(Cc2ccccc2)c2cccnc12	2.2%
CCCCN(C)CCNC(=O)c1c(C)oc2ncnc(N3CCOCC3)c12	-0.2%
FC(F)(F)c1nc2ccccc2n2c(-c3c(Cl)cccc3Cl)nnc12	-3.6%
O=C(O)CCCCCNC(=O)Nc1ccc2c(c1)OCCO2	3.5%

Fetched by compound from above (4):
SMILES	VDR inhibitor
COc1cccc(C2=NOC(C(=O)NCCCn3ccnc3)C2)c1 (centres undefined)	4.2%
FC(F)(F)c1nc2ccccc2n2c(-c3c(Cl)cccc3Cl)nnc12	-3.6%
COc1cccc(NC(=O)N(Cc2c[nH]c3ccccc23)C2CCCCC2)c1	-16.9%
Cc1cc(=O)oc2cc(OCc3ccc(S(=O)(=O)N4CCOCC4)cc3)ccc12	-8.7%

The list goes on.
SMILES	VDR inhibitor
CC(C)C(NC(=O)/C(=C/c1ccco1)NC(=O)c1ccc(Br)o1)C(=O)O (centres undefined)	-13.4%
Oc1c(CN2CCN(c3ccccn3)CC2)cc(Cl)c2cccnc12	11.8%
Cc1ccc(NS(=O)(=O)c2c(C)nc3sccn3c2=O)c(C)c1	1.6%
COc1ccc(-n2c(=S)[nH]c3cc(C(=O)NCc4ccco4)ccc3c2=O)c(OC)c1	0.5%
NC(=O)C1CCN(CC(=O)Nc2nc(-c3ccccc3)cs2)CC1	5.1%
CC(C)c1ccc(-c2nn[nH]n2)cc1	5.3%
CN(Cc1nccs1)C(=O)C1CCC(=O)N(Cc2ccccc2F)C1 (centres undefined)	-11.6%
O=C(O)C1C2CCC(C2)C1C(=O)NCCc1cccc(Cl)c1 (centres undefined)	-9.9%
Cn1c(=O)oc2cc(S(=O)(=O)N3CCC(C(=O)N4CC=C(c5ccccc5)CC4)CC3)ccc21	-10.9%
CCOc1cc(C(=O)O/N=C(\N)c2ccccn2)cc(OCC)c1OCC	-17.2%
CN1C2C=C3C(C#N)=C(N)C(C#N)(C#N)[C@@H](c4ccc(Cl)cc4)[C@@H]3C1CC2 (some centres undefined)	-2.4%
O=C(NCc1ccc2c(c1)OCO2)c1cc(S(=O)(=O)N2CCCCC2)ccc1F	0.9%
Cc1cc(C)c(C(=O)NCC(=O)c2ccccc2)c(C)c1	-7.8%
Cc1ccc(CCNC(=O)c2cccc(Nc3nc4ccccc4nc3-n3nc(C)cc3C)c2)cc1	-14.9%
O=C(Cc1ccc(F)cc1)Nc1ccc2[nH]ncc2c1	0.0%
Brc1ccc(-c2nnc(-c3cccc(Br)c3)o2)cc1	22.8%
COCCN(CCOC)S(=O)(=O)c1ccc(Cl)nc1	-25.8%
CCOc1ncccc1C(=O)Nc1ccc(S(=O)(=O)N2CC(C)CC(C)C2)cc1 (centres undefined)	16.1%
O=C(c1cn(-c2ccccc2)nc1-c1cccnc1)N1CCN(S(=O)(=O)c2ccccc2F)CC1	6.8%
Cc1cccc(OCC(=O)Nc2c(C)ccc3nsnc23)c1C	8.6%
Cn1cc(CN2CCC(C(=O)N3CCCCC3)CC2)c(-c2ccccc2F)n1	-3.8%
CCc1ccc(NC(=O)C2CCN(S(=O)(=O)c3ccc4[nH]c(=O)ccc4c3)CC2)cc1	-3.8%
CCOc1cc(C=O)ccc1OCc1cc(=O)n2cc(C)ccc2n1	-11.6%
CC1(C)C2CC=C(/C=N/NC(=O)c3ccccc3O)C1C2 (centres undefined)	13.4%
CC(C)(C)Cc1nnc(NC(=O)Cc2cccs2)s1	3.8%
CC(C)CNC(=O)[C@@H]1CSC2c3ccccc3C(=O)N21 (some centres undefined)	-27.9%
O=C(N/N=C\c1cccs1)c1sccc1-n1cccc1	-1.7%
Cc1cc(Br)c2c(c1)/C(=C/C(=O)c1cccs1)C(=O)N2	?
CCOc1ccc2nc(N3CCN(C(=O)c4ccc5c(c4)CCCC5)CC3)sc2c1	16.4%
COc1ccc(NC(=O)C(Cc2ccccc2)n2cccc2)c(OC)c1 (centres undefined)	16.4%&-12.5%
CCc1ccc(NC(=O)COc2coc(CN3CCN(c4ccccc4)CC3)cc2=O)cc1	-12.4%
COc1cccc(NC(=O)N2CCC(N3CCCCC3)CC2)c1	6.3%
COCCN(CC(=O)Oc1ccccc1P(=O)(OC)OC)Cc1ccccc1	-5.0%
O=C(Nc1cccc2ccccc12)C1CCCC1	0.0%
O=C1CCN(CCc2ccccc2)CCN1[C@H](COc1ccccc1)Cc1ccccc1	11.4%
O=C(Nc1ccc(Cl)cc1)C1CCN(C(=O)NC2CCCCC2)CC1	-1.5%
COc1ccc(C(=O)NCCc2c[nH]c3ccccc23)cc1	5.2%
O=C(N/N=C/c1coc2ccccc2c1=O)c1cn(-c2ccccc2)nc1-c1ccc(F)cc1	-8.8%
O=C1CN2Cc3c(ccc(Cl)c3Cl)N=C2N1	-4.9%&-0.6%
COc1ccc2c(c1)[n+](=O)c(C(C)=O)c(C)n2[O-]	-3.9%
O=C1NN=COc2ccccc21	11.7%
O=C(CSc1nc2scc(-c3ccccc3)c2c(=O)[nH]1)Nc1ccccc1	4.8%
COc1ccc(C(=O)CC(=O)C(=O)Nc2ccccc2C(F)(F)F)cc1	-3.9%
Cn1cc(C(=O)N/N=C/c2cccs2)c2ccccc21	-4.6%
O=C(c1ccco1)N1CCN(S(=O)(=O)c2ccc(S(=O)(=O)NC3CCCCC3)cc2)CC1	-6.2%
O=C(Nc1nn[nH]n1)c1cccc([N+](=O)[O-])c1	-6.5%
COc1ccc(CC(NC(C)=O)C(=O)NC2CCN(C(=O)c3cc(OC)c(OC)c(OC)c3)CC2)cc1 (centres undefined)	-20.8%
COc1cc(C(c2c(C)[nH][nH]c2=O)c2c(C)[nH][nH]c2=O)cc(OC)c1OC	-12.7%
O=C(OCN1C(=O)c2ccccc2C1=O)c1cc(S(=O)(=O)N2CCOCC2)ccc1F	-26.7%
Cc1ccccc1C(=O)N/N=C1\SCC(=O)N1Cc1ccco1	-11.3%
O=C(CCn1cccc(C(F)(F)F)c1=O)Nc1cccc(C(F)(F)F)c1	-9.0%
Nc1c(NC2CCCCC2)c2ccccc2oc1=O	-0.2%
Cc1cccnc1NC(=O)CCNC(=O)c1ccc(Cl)cc1	9.9%
CCOC(=O)C1C(=O)CC(C)(O)C(C(=O)OCC)C1c1ccc([N+](=O)[O-])cc1 (centres undefined)	-8.2%
CC1(C(=O)Nc2nnc(SCc3ccccc3)s2)Cc2ccccc2C(=O)O1 (centres undefined)	-9.3%
C=CCNC(=O)[C@@H]1CSC2c3ccc(OC)c(OC)c3C(=O)N21 (some centres undefined)	-10.7%
Cc1nc(C)n(C(C)CNS(=O)(=O)c2ccc(Cl)cc2)n1 (centres undefined)	8.8%
COc1cccc(C(=O)NCC(=O)OCC(=O)Nc2cc(OC)c([N+](=O)[O-])cc2C)c1	7.3%
CCCCNC(=O)C(C)N(CCN(C)C)C(=O)CCCN1C(=O)NC(c2ccc(Cl)cc2)C(C(=O)OCc2ccccc2)=C1C (centres undefined)	-3.8%
CCOC(=O)c1ccc2c(c1)C(=O)N(C1CCCCC1)C2=O	-9.8%

New compounds follow.
SMILES	VDR inhibitor
Cc1ncc(CO)c(CN)c1O	?
Cc1ccc(NC(=O)CSc2nc3c(c(=O)[nH]2)CCC3)cc1Cl	9.0%
Cc1ccc(C)c(CSc2ccc3nnc(-c4ccccn4)n3n2)c1	-12.4%
CC(C)(C)c1cc(C(=O)C[n+]2ccc(C(=O)NCCCO)cc2)cc(C(C)(C)C)c1O	-11.7%
N#CC(C(N)=O)=C1CCCCC1	1.5%
O=C(Cn1cc(S(=O)(=O)Cc2cccc(Cl)c2)c2ccccc21)Nc1ccccc1Cl	2.6%
COc1cc(NC(=O)c2oc3ccccc3c2C)ccc1NC(=O)c1ccco1	12.3%
CCN(CC)S(=O)(=O)c1ccc(N(C)C)c(NC(=O)CC(NC(C)=O)c2ccccc2)c1 (centres undefined)	-6.5%
O=C(OCC(=O)N1CCCc2ccccc21)c1ccc(S(=O)(=O)C(F)F)cc1	15.5%
Nc1nc(NCCOCCO)nc(N2CCCCCC2)c1[N+](=O)[O-]	20.7%
O=C(CN1C(=O)C2(OCCCO2)c2ccccc21)NCCc1ccccc1	13.9%
COCCNC(=O)c1cc(-c2ccc(-c3ccccc3)cc2)nc2ccccc12	5.4%
CN(C)c1cc(-c2ccc([N+](=O)[O-])cc2)oc(=O)c1Cl	8.7%
COc1ccc(C2C(C#N)=C(N)Oc3cc(N)ccc32)cc1OC (centres undefined)	-18.6%
COc1ccc(S(=O)(=O)N2Cc3ccccc3CC2C(=O)Nc2ccc(C)cc2C)cc1OC (centres undefined)	?
O=C(COC(=O)C1CCCC1)NCc1ccc(Cl)cc1	-3.8%
CC(C)(C)OC(=O)N1CCC(c2c(C(=O)N3CCN(C(=O)c4ccco4)CC3)cnn2-c2ccc(F)cc2)CC1	?
Cc1ccc(S(=O)(=O)N2CCCc3cc(NS(=O)(=O)c4cc(C)ccc4C)ccc32)cc1	3.8%
Cc1ccc(NC(c2nnc(-c3ccccc3)o2)c2ccccc2F)c(Cl)c1 (centres undefined)	-5.9%
CCOc1ccc(-c2csc3ncnc(Nc4cccc(O)c4)c23)cc1	-19.8%
O=S(=O)(Nc1ccncc1)c1cc(Cl)ccc1Cl	126.6%[activator]
Cc1cccc(OCC(=O)OC(C)CN2CCCCC2)c1 (centres undefined)	6.4%
CNC(=S)N1CCc2ccccc2C1	-4.8%
Cc1ccc(-n2ncc3c2CCCC3NC(=O)CCCN2CCCCC2=O)cc1C (centres undefined)	-13.3%
CCCCCn1c(=O)[nH]c2cc(C(=O)Nc3ccc(OC)c(OC)c3)ccc2c1=O	8.9%
Cc1cccc(NS(=O)(=O)c2ccc(C)c(C(=O)N(C)C3CCN(C)CC3)c2)c1	-17.0%
Cc1ccc(-c2noc(CN3CCC(C(N)=O)CC3)n2)cc1	-3.7%
CCCC(=O)Nc1cc(C)c(NC(=O)c2ccco2)cn1	-13.7%
O=S(=O)(NN=C1CCCCCC1)c1ccc(Cl)cc1	-5.4%
COCc1[nH]nc2c1C1(C(=O)N(C)c3ccccc31)C(C#N)=C(N)O2 (centres undefined)	6.7%
c1coc(C2OCC3(CO2)COC(c2ccco2)OC3)c1 (centres undefined)	-12.2%
O=C(NCc1ccc2c(c1)OCO2)c1c(O)nc2sccn2c1=O	-0.5%
O=C(c1ccc2nc(N3CCOCC3)sc2c1)N1CCCC1	18.6%
CCCCN(C)C(=O)C1CCCN(S(=O)(=O)c2ccc3c(c2)oc(=O)n3C)C1 (centres undefined)	-0.9%
COc1ccc(/C=N/n2c(SC)nnc2-c2ccccc2)cc1C	-10.6%
COc1cc(/C=C2\C(=N)N3N=C(S(C)(=O)=O)SC3=NC2=O)ccc1OCCOc1ccccc1C	?
Cc1cc2c(cc3c(SCC(=O)Nc4cccc(Cl)c4C)nnc(C)n32)o1	24.3%
CC(=O)c1ccc(NC(=O)c2ccc(CN3C(=O)CCn4nc(C)cc43)cc2)cc1	4.7%
CCOC(=O)c1ccc(NC(=O)CN2C(=O)CSCC2=O)cc1	16.5%
COc1ccc(OC)c(CN2CCN(S(=O)(=O)c3ccccc3)CC2)c1	-19.9%&-6.7%
S=c1[nH]cc(-c2ccc(Cl)cc2)n1-c1ccccc1	?
CCOC(=O)c1c(S(=O)(=O)NCC(=O)Nc2cc(C)ccn2)c(C)n(C)c1C	7.2%
CC(=O)C1=C(O)C(=O)N(CCN2CCOCC2)C1c1ccc(N(C)C)cc1 (centres undefined)	-2.5%
C#CCOCCOCCOCCNc1nc(N2CCN(C(=O)[C@H]([C@@H](C)O)n3cc(CCCCN)nn3)CC2)nc(N2CCN(C(=O)[C@H](CCCCN)n3cc(CCCC)nn3)CC2)n1	-11.8%
O=C(O)C1CCN(C(=O)c2ccccc2C(=O)N2CCC(C(=O)O)CC2)CC1	7.9%
O=S1(=O)OCCC(c2ccccc2)N1Cc1ccccc1 (centres undefined)	-1.9%
Cc1ccsc1C1NC(=O)c2ccccc2N1 (centres undefined)	-7.7%
CC(=O)NC12CC3CC(C1)CC(C(=O)OCC(=O)NC(=O)c1cccn1C)(C3)C2	2.9%

Ordered by the number under VDR inhibitor (falling): 6 of the compounds above
SMILES	VDR inhibitor
Cc1cc2c(cc3c(SCC(=O)Nc4cccc(Cl)c4C)nnc(C)n32)o1	24.3%
Cc1nc(C)n(C(C)CNS(=O)(=O)c2ccc(Cl)cc2)n1 (centres undefined)	8.8%
COc1cccc(C2=NOC(C(=O)NCCCn3ccnc3)C2)c1 (centres undefined)	4.2%
CC(=O)C1=C(O)C(=O)N(CCN2CCOCC2)C1c1ccc(N(C)C)cc1 (centres undefined)	-2.5%
COc1ccc2c(c1)[n+](=O)c(C(C)=O)c(C)n2[O-]	-3.9%
Cc1cc(=O)oc2cc(OCc3ccc(S(=O)(=O)N4CCOCC4)cc3)ccc12	-8.7%

Going on with the list:
SMILES	VDR inhibitor
COc1ccc(CCNC(=O)C(=O)NCC(c2cccs2)S(=O)(=O)c2ccccc2)cc1 (centres undefined)	9.0%
COc1ccc(CCNC(=O)COC(=O)Cc2c[nH]c3ccccc23)cc1OC	-7.6%
N#CC1=C2N=C(N)c3ccccc3N2C2=C(C(=O)CCC2)C1c1cccc(Cl)c1 (centres undefined)	-9.1%
Cc1cc(-c2ccc(N3CCOCC3)cc2)nc2ccccc12	-6.1%
